Screens deposited in PubChem BioAssay by several laboratories.
CSC inhib: cancer stem cell inhibition. cancer stem cell-like cells viability, luminescence. inhibition, % at 7.5 µM. actives 1.1% (n = 300,000). AID 2717;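 active = mean at 75% or more and at least half the replicates too; inconclusive = mean and replicates disagree; tested in HMLE shEcad cells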;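 also: 0% = median of negative and 100% = median of positive control wells; the first replicate is given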
Yeast UUG start: modulators of start codon recognition fidelity in yeast; S. cerevisiae UUG-firefly luciferase reporter, luminescence/redox ratio; activity score, % at 18.7 µM; actives 0.13% (n = 350,000);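 active = replicate mean at a twofold rise or more, about +100% in these data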;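 also: firefly luciferase made from a UUG start codon reports start codon fidelity; reporter light over untreated wells divided by growth signal over untreated wells; some hits fall short of that in this replicate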
PABP FP inh: blocks human PABP binding to poly(A) RNA; P11940; fluorescence polarization; inhibition, % at 35 µM; actives 1% (n = 290,000);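 active = 50% or more with normal probe brightness, or confirmed in later tests; inconclusive = above 50% with abnormal brightness, or retests that disagree; inactive = below 50% or failed in later tests; about a fifth of its hits are not listed in these tables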;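 also: calls also rest on retests at 20 µM and on dose response follow-up; controls were probe without protein and protein plus probe with vehicle; some compounds called inactive have numbers as strong as hits; many hits fall short of the cut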
Target sequence (P11940 whole entry, looked up): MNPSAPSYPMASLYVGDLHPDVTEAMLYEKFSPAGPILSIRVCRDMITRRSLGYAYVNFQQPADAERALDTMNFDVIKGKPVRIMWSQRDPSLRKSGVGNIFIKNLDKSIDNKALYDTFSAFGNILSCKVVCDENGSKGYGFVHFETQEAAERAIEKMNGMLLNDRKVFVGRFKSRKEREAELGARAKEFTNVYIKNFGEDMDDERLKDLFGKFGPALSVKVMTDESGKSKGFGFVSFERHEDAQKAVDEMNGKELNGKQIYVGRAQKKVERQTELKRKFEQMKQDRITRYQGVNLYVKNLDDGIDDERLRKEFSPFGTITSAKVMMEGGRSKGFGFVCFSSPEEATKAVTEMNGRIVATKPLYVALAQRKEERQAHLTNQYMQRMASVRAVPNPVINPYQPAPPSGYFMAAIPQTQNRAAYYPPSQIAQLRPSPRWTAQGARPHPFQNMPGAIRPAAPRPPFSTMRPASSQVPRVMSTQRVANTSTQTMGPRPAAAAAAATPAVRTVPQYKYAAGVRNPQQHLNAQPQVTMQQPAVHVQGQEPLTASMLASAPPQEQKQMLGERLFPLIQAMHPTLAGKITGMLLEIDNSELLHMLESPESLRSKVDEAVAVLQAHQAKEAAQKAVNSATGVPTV
eIF4H FP inh: inhibitors of RNA binding by human eIF4H | Q15056 | eIF4H fluorescence polarization binding assay | inhibition, % at 35 µM | actives 0.94% (n = 290,000);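 active = 50% or more with normal probe brightness, or confirmed in later tests; inconclusive = above 50% with abnormal brightness, or retests that disagree; inactive = below 50% or failed in later tests; about a fifth of its hits are not listed in these tables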;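 also: calls also rest on retests at 20 µM and on dose response follow-up; 0% = protein and probe with vehicle and 100% = probe without protein; strong numbers were not always called active; many hits fall short of the cut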
Rce1 inh: yeast Ras-converting enzyme inhibition; actives 0.27% (n = 290,000); yeast membranes, quenched prenylated peptide cleavage fluorescence; Q03530; calls only;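 active = fall in fluorescence gain of 50% or more versus controls, with final raw signal at or below 3038400; inconclusive = same 50% fall but final raw signal above 3038400; inactive = fall in fluorescence gain under 50%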;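 also: plate controls were neutral control wells for no effect and wells lacking membranes for full effect; tested at 10 µM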
Target sequence (Q03530 whole entry, looked up): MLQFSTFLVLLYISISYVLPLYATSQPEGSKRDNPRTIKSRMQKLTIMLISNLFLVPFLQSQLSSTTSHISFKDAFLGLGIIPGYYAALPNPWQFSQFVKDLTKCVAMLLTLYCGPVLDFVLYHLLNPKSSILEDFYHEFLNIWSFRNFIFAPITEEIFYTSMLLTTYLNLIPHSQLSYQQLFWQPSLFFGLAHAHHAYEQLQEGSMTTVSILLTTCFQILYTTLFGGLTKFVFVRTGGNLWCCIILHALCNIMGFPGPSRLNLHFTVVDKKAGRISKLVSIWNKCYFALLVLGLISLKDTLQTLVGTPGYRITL
MT1-MMP act inh: blocks activation of human MT1-MMP. HT1080 RFP-PRO-GFP cells, GFP/RFP ratio fluorescence, overnight; percent of plate control window, DMSO zero. GFP/RFP ratio change, % at 20 µM. AID 651647. actives 0.061% (n = 360,000);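 active = GFP/RFP ratio change of at least 30% with cell ATP level not reduced by more than half and red fluorescence within 50% of control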; also: strong numbers were not always called active
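Assay system: RFP-PRO-GFP reporter HT1080 cells; read-out basis: GFP/RFP fluorescence ratio; benchmarks: DMSO wells and RFP-L50D-GFP cells; doses: 20 µM single dose, 1% DMSO; schedule: overnight cell settling, then overnight compound exposure, 37 °C, 5% CO2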
Env fusion inh: HIV envelope-mediated fusion inhibition | actives 1.1% (n = 360,000) | AID 651610 | inhibition, % at 12.3 µM | HeLa-JRFL Env/CEM21 cell fusion, luciferase;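 active = mean replicate inhibition score of at least 50 and every replicate individually at or above 50; inconclusive = only one of the two criteria met; inactive = mean below 50 and not all replicates reaching 50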;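 also: 0% = plate neutral controls and 100% = maraviroc near 300 nM; one replicate is shown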
MT1-MMP act inh RFP: further read-out of MT1-MMP act inh, marked with its call; RFP signal change, %; measured here: RFP expression control read;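 0 = vehicle wells; hits needed this value within 50% of zero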
The depositor's hits bear a star; i = inactive; ? = inconclusive; . = not tested or not shown; & = joins results of further samples; [ ] = remark or other dose.

SMILES	CSC inhib	Yeast UUG start	PABP FP inh	eIF4H FP inh	Rce1 inh	MT1-MMP act inh	MT1-MMP act inh RFP	Env fusion inh
CCCN1CCN(C(=O)c2ccccc2-c2nc3ccccc3s2)CC1	-1	.	-5	3	i	-2	5	-2
O=C(O)COCC(=O)Nc1ccc(-n2nc(C(F)(F)F)cc2-c2cccs2)cc1	2	5	12	1	i	-2	0	-3
C=CCNS(=O)(=O)c1ccc(N2C(=O)c3ccccc3C2=O)cc1	-8	.	2	-9	i	-1	3	5
COCCCNC(=O)COC(=O)c1ccc(-c2nc3ccccc3s2)s1	27	-2	10	3	i	0	4	-17
CCC(C)c1ccc(NC(=S)NCCn2cc(Cl)cn2)cc1 (configuration not stated)	5	.	2	-15	i	3	-2	-10
Cc1cc(C)nc(Nc2ccc(C(=O)O)cc2)n1	-6	-17	10	-1	i	0	0	.
CCN1CCN(c2ccc(S(=O)(=O)N3CCOCC3)cc2NC(=O)c2sccc2C)CC1	1	-7	.	.	i	-2	-2	0
CC(C)Cn1c(SCC(=O)NC(=O)NC2CCCC2)nc2ccccc21	6	-18	-3	-2	i	0	-11	.
COC(=O)c1c(-c2ccc(F)cc2)csc1NC(=O)C1CCCO1 (configuration not stated)	9	.	2	6	i	2	-4	0
Brc1ccccc1/C=N/N1CCCCC1	7	-6	7	4	i	-3	2	4
CS(=O)(=O)Nc1cccc(NC(=O)c2ccc(-n3ccnc3)c3ccoc23)c1	.	115*	.	.	.	10	6	-16
Cc1c(CN2CCN(CC(C)(C)C)C(CCO)C2)[nH]c2ccccc12 (configuration not stated)	-4	-6	5	5	i	-7	2	-12
COc1ccc2cc1Oc1ccc(cc1)C[C@H]1c3c(cc4c(c3Oc3cc5c(cc3OC)CCN(C)[C@@H]5C2)OCO4)CCN1C	4	-27	2	0	i	-6	-4	13
COc1cccc(-c2nnc3sc(-c4ccccc4)nn23)c1	6	-22	-11	-12	i	-4	2	-55
CCOC(=O)C1=C(CC)Nc2ccccc2N/C1=N\S(=O)(=O)c1cc(Br)ccc1Br	.	-5	4	-3	i	0	-6	6
COc1ccc(-c2nn(-c3ccccc3)cc2/C=N/Nc2ccccn2)cc1OC	11	-28	2	-11	i	-9	-13	-18
c1csc(CNCCN2CCOCC2)c1	3	-9	42	-5	i	4	1	8
COC(=O)[C@]1(C)N[C@H](CN(C)C(=O)Nc2ccc(Cl)cc2)[C@@H]2C(=O)N(Cc3ccccc3)C(=O)[C@@H]21	-12	-14	.	.	.	-2	-3	79*
O=C(c1ccc(C(F)(F)F)cc1)C1CCCN(C(=O)Cn2cncn2)C1 (configuration not stated)	3	-16	-8	1	i	1	1	-6
NC(=O)C1(N2CCCCC2)CCN(S(=O)(=O)c2cc(Cl)sc2Cl)CC1	-8	-7	8	7	i	1	-3	13
CCCc1nnc(NC(=O)C2CCN(C(=O)c3ccco3)CC2)s1	-7	.	-6	-11	i	3	5	-2
CCOC(=O)N1CCN(CC(O)COCCC23CC4CC(CC(C4)C2)C3)CC1 (configuration not stated)	26	-1	6	1	i	4	2	.
CC(=O)Nc1ccc(S(=O)(=O)N=S(C)(C)=O)cc1	-5	.	-4	-11	i	2	-1	-1
Cc1ccc(CCNC(=O)c2ccc(CS(=O)(=O)c3ccccc3C)o2)cc1	5	6	.	.	i	-1	-2	7
CCc1nc(Nc2ccc(OC)c(OC)c2)c2nnn(Cc3ccccc3Cl)c2n1	-23	-7	-7	-5	i	-10	-32	.
Cc1cccc(NC(=O)c2cccs2)n1	5	-51	0	-8	i	0	-3	.
Cc1nc2cc(N3CCN(C)CC3)c(NC(=O)Cc3ccccc3)cc2c(=O)n1Cc1ccccc1	0	2	-5	33	i	-1	0	15
CCOc1ccccc1C(=O)NCC(=O)N(C)Cc1ccccc1C	4	0	0	4	i	2	2	12
O=C(CCCC(=O)N/N=C/c1ccccc1C(=O)O)N/N=C/c1ccccc1C(=O)O	-7	.	2	-8	i	-4	2	-4
COc1ccc(/C(O)=C2\C(=O)C(=O)N(Cc3ccco3)C2c2ccc(OC)cc2OC)cc1 (configuration not stated)	-14	-9	4	0	i	0	-2	-90
CCC(C)NC(=O)COC(=O)c1csc2c1CCCC2 (configuration not stated)	-10	.	12	-7	i	4	1	-12
O=C(COc1cccc(Br)c1)Nc1ccc(N2CCOCC2)cc1N1CCOCC1	4	5	.	.	.	0	-2	.
Cc1ccc(S(=O)(=O)c2cccc(S(=O)(=O)N3CCOCC3)c2)cc1S(=O)(=O)N1CCOCC1	-3	-8	-6	5	.	7	4	?
COc1ccc(CNC(=O)COC(=O)c2cccn2C)cc1	-9	-13	.	.	.	3	-1	11
CN(CCC#N)C(=S)NC(=O)c1ccc(S(=O)(=O)N2CCOCC2)cc1	.	.	-17	5	i	-1	2	6
COc1ccc2[nH]cc(S(=O)(=O)c3ccc(F)cc3)c(=O)c2c1	-12	-10	-2	9	i	2	-16	-14
O=C(CCC(=O)NC1CCN(Cc2ccccc2)CC1)NCc1ccco1	-17	-8	4	-1	i	1	7	-21
CCCSc1ccc(-c2nn(-c3ccccc3)cc2/C=C(/C#N)C(=O)NCCCOC)cc1	7	-10	-16	3	i	4	3	25
CC(=O)c1cccc(S(=O)(=O)N2CCCC(c3nc(-c4ccc(C)o4)no3)C2)c1 (configuration not stated)	-7	.	0	5	i	-9	-5	6
CN(Cc1nc2ccccc2c(=O)[nH]1)C(=O)c1cccc(S(=O)(=O)N2CCCC2)c1	.	3	.	.	.	-1	-1	8
NNC(=O)c1ccc(CN2C(=O)c3cccc4cccc2c34)cc1	5	.	3	-1	i	1	3	7
Cc1ccc2[nH]c3c(=O)n(CCc4cnc[nH]4)cnc3c2c1	-15	-13	-11	-13	i	4	5	.
Cc1ccc(C)c(N2CCN(CCCNC(=O)Cn3cccc3C(=O)c3ccccc3)CC2)c1	-2	11	-8	-7	i	-4	-7	27
OCCC#Cc1ccc(CN2CCN(Cc3ccccc3)C(CCO)C2)cc1 (configuration not stated)	-3	.	1	-8	i	3	2	10
COc1cc(/C=C(/NC(=O)c2ccccc2)C(=O)N2CCN(C)CC2)c([N+](=O)[O-])cc1OC	.	-10	-3	3	i	0	4	5
CCN(CC)c1nc(N2CCOCC2)c(C#N)c2c1CN(C)CC2	-8	.	18	25	i	-4	4	.
COCCNC(=O)c1ccc(CN2CCC(Cc3ccccc3)CC2)cc1	-10	-7	-1	-12	i	1	-2	1
O=C(Nc1ccc(NC(=O)c2cccs2)cc1)c1ccc(Br)o1	2	-13	1	-10	i	0	0	.
O=C(Nc1nc(-c2cccs2)cs1)c1cccc(S(=O)(=O)N2CCCCC2)c1	24	-16	9	-4	.	-19	-15	69*
O=C(ONC1=NCCCCC1)c1ccc(Cl)cc1	7	-9	-8	8	i	-5	-4	.
Continuation:
SMILES	CSC inhib	Yeast UUG start	PABP FP inh	eIF4H FP inh	Rce1 inh	MT1-MMP act inh	MT1-MMP act inh RFP	Env fusion inh
COc1ccc(C(=O)NCCc2nnc3ccc(SCC(=O)Nc4cc(C)on4)nn23)cc1	-8	.	-11	-2	i	6	8	3
CCCC(C)(C)C(=O)N1CCC1(C)C(=O)NS(=O)(=O)c1cccc(Cl)c1 (configuration not stated)	.	2	.	.	.	-2	4	2
Cc1ccc(-c2n[nH]c(=O)c3ccccc23)cc1S(=O)(=O)NCCO	-4	.	7	3	i	4	3	-7
Cc1ccc(SCC(=O)O/N=C(\N)c2ccncc2)cc1	-2	-11	-7	-5	i	4	-2	16
O=C(Cc1cccs1)Nc1nnc(-c2ccncc2)s1	6	-12	5	6	i	-1	-1	11
Cc1nc2ccccc2cc1OCc1ccc(Cl)cc1	.	-14	-3	-11	i	0	-20	27
COc1ccccc1C(=O)N/C(=C\c1cn(S(=O)(=O)N(C)C)c2ccccc12)C(=O)N1CCCC1	-3	-15	-3	-6	i	1	5	1
COc1ccc(C2(c3ccc(OC)cc3)NC(=O)N(CC(=O)NC3CCS(=O)(=O)C3)C2=O)cc1 (configuration not stated)	0	-6	.	.	.	-4	1	14
Cc1cc(NC(=O)c2c(-c3c(Cl)cccc3Cl)noc2C)n(C)n1	-4	-8	-2	-14	i	5	5	12
COc1ccc(NC(=O)CN(C)C(=O)c2ccc3[nH]c4c(c3c2)CC(C)CC4)cc1 (configuration not stated)	-8	.	.	.	i	5	-5	5
Cn1c(=O)n(C)c2cc(NC(=O)COc3ccc(F)cc3F)ccc21	-8	1	10	3	i	7	-7	-8
COc1ccc(OC)c(CCNC(=O)c2nn(C)c3c2CS(=O)(=O)c2ccccc2-3)c1	-9	-3	.	.	i	0	-1	8
CCOc1ccc(C(=O)NCC(=O)OCC(=O)c2ccc3c(c2)-c2ccccc2C3)cc1	-3	.	-4	-13	i	0	7	i
COc1ccc(-c2cc(C(=O)N3CCCCCC3)no2)cc1OC	-7	-2	15	-2	i	2	2	-27
CCn1ncc(Br)c1C(=O)Nc1ccc(-c2ccno2)cc1	.	-11	6	0	i	2	1	1
COc1cc(C(=O)NCC(c2ccc(F)cc2)N2CCOCC2)ccc1OCc1ccccc1Cl (configuration not stated)	11	.	.	.	i	-2	-3	-14
CC1CCc2cccc3c2N1c1cc(C#N)c(C#N)cc1O3 (configuration not stated)	10	-16	?	?	i	-39	-2	.
Cc1nnsc1Sc1ccccc1	5	-4	14	4	i	1	2	-11
Cc1[nH]c2ccc(S(N)(=O)=O)cc2c1C	-10	5	-7	1	i	6	0	-19
Cc1noc(C)c1NC(=O)N(C)C[C@H]1Oc2c(NC(=O)C3CC3)cccc2C(=O)N([C@H](C)CO)C[C@@H]1C	-11	-3&-6	.	.	.	-2	1	6[16.7 µM]
CC(=O)C1=NOC2C(=O)N(c3ccc(Cl)cc3)C(=O)C12 (configuration not stated)	-8	-11	1	8	i	-3	-1	1
CNS(=O)(=O)c1cnccc1N1CCN(c2cccc(Cl)c2)CC1	-9	-15	5	-3	i	6	-4	.
Cc1cccc(-n2c(-c3csc(C)c3)n[nH]c2=S)c1	-14	.	-4	10	i	1	-2	.
CCC(C)(C)NC(=O)/C=C/c1cccs1	-10	-11	-7	-5	i	2	2	-44
O=c1oc2ccccc2cc1-c1nc2c(s1)CCCC2	19	-31	-7	-8	i	-1	-7	.
O=C(CN1C(=O)NC2(CCCC2)C1=O)Nc1ccc(F)c([N+](=O)[O-])c1	15	.	6	-6	i	0	3	-6
CCCc1cc(=O)[nH]c(SCC(=O)N2c3ccccc3CC2C)n1 (configuration not stated)	8	-6	.	.	.	-1	5	-5
O=C(c1cc(COc2c(F)cccc2F)on1)N1CCCCCC1	-5	-2	-4	-13	i	1	0	-43
CC[C@@]1(O)C(=O)OCc2c1cc1n(c2=O)Cc2cc3c(CN(C)C)c(O)ccc3nc2-1	104*	-16	.	.	i	-89	-8	.
CCC(c1nnnn1CC1CCCO1)N(CCN1CCOCC1)Cc1cc2cc(C)ccc2[nH]c1=O (configuration not stated)	.	3	2	1	.	-1	0	.
N#Cc1cc2c(nc1SCC(=O)NCc1ccc3c(c1)OCO3)CCCCC2	1	-6	-4	11	i	-6	-1	10
COC(=O)c1sccc1NC(=O)COc1ccc(Cl)cc1Cl	-7	.	3	-1	i	-2	-4	-100

Some of the entries above, set out differently:
smiles,CSC inhib,Yeast UUG start,PABP FP inh,eIF4H FP inh,Rce1 inh,MT1-MMP act inh,MT1-MMP act inh RFP,Env fusion inh
CC(=O)C1=NOC2C(=O)N(c3ccc(Cl)cc3)C(=O)C12 (configuration not stated),-8,-11,1,8,i,-3,-1,1
O=C(c1cc(COc2c(F)cccc2F)on1)N1CCCCCC1,-5,-2,-4,-13,i,1,0,-43

These rows are one share of the data. The share of hits here may be higher or lower than overall.
